Assay outcomes (PubChem)
NPYLR7 agonist = mosquito NPYLR7 agonism; 270,000 compounds, 0.15% hits; HEK293T NPYLR7/Galpha15, GCaMP6s calcium fluorescence; activation, % at 10 µM; in the data active = activation above about 40%;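 note: 0% = vehicle and 100% = reference agonist at the receptor; some compounds past the cut are filed as inactive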
NPYLR7 agonist max-min = also measured in NPYLR7 agonist; calls as there; activation, %; measured here: Max-Min RFU normalised activation; some inactives read as strong as hits;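 span of the calcium signal over five minutes; 0% = vehicle and 100% = native peptide agonist; compound fluorescence can raise it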
* = called active by the depositor; & = joins results of further samples.

SMILES	NPYLR7 agonist	NPYLR7 agonist max-min
Cc1cccc(C2(NC(=O)NCc3ccnc(C)n3)CCCC2)c1	5	0
CCC(NC(=O)CC1CCCO1)c1ccccc1OCC(=O)N1CCCC1 (centres undefined)	-4	-5
Cc1cccc(-c2nc3ccc(Cl)cn3c2NC(C)(C)C)c1	2&9	3&6
Cc1cccc(-c2ccnc3nc(N4CCN(C(=O)c5cccnc5Cl)CC4)nn23)c1	2	0
Cc1ccc(C2N(c3nccs3)C(=O)C3CCCN32)cc1 (centres undefined)	-10	-8
CC1=NC2=C(C(=O)CC(c3ccccc3)C2)C(c2ccc(O)cc2)C1C(=O)OCc1ccccc1 (centres undefined)	1	3
CC1Cc2ccccc2C1NC(=O)N1CCC(OC2CCOC2)CC1 (centres undefined)	4	2
COc1ccccc1-c1nnc(NC(=O)CSc2nnc(N)s2)s1	5	10
Cc1[nH]nc(NCCc2ccccc2)c1[N+](=O)[O-]	-1	-3
COCCN1CCCC2(CCN(C3CCN(c4ccc(OC)cc4)CC3)C2)C1 (centres undefined)	0	-3
O=C(CCc1ccc(F)c(F)c1)Nc1cc(F)cc(N2CCOCC2)c1	3	3
N#C/C(=C/c1ccccc1OCC(=O)O)c1nc2ccc(Br)cc2c(=O)[nH]1	8	8
CCC(=O)Nc1cc2nn(-c3ccc(OC)c(Cl)c3)nc2cc1C	-3	-3
N#Cc1c(NC(=O)CSc2ncnc3sccc23)oc(-c2ccco2)c1-c1ccco1	1	-8
Cc1nc(S(=O)(=O)Cc2nccn2C)n(C2CCCCC2)c1C	0	-9
O=C(Nc1ccccc1F)Nc1cccc2c1CCCN2	0	13
Cc1ccc(C(C2Sc3nc(-c4ccco4)nn3C2=O)N2CCCCC2)cc1 (centres undefined)	5	4
CCCc1noc(-c2cccc(CNS(=O)(=O)CC)c2)n1	14	13
CCOc1ccc(-c2cc(C(=O)NCc3ccccc3C(F)(F)F)c3ccccc3n2)cc1	-1	11
CCn1ncnc1C1CC(=O)Nc2n[nH]c(C(=O)OC)c21 (centres undefined)	22	15
COc1cc(NC2CC(=O)N(c3ccccc3F)C2=O)cc(OC)c1 (centres undefined)	-1	-4
O=C(NCCN1CCCCC1)C1CCN(c2ncccc2-c2nc(-c3cccc(F)c3)no2)CC1	1	-2
COc1ccc(NC(=O)CSc2ccc3nnc(-c4ccncc4)n3n2)c(OC)c1	1	0
O=C1CCC(=O)N1CCN1CCN(c2ncc(Br)cn2)CC1	0	-4
CN(Cc1cccc(F)c1)C(=O)c1ccc(NC(=O)C2CC2)s1	1	0
O=C(CCC1(Cc2ccccc2)CCC(=O)N1)NC1CCCc2ccccc21 (centres undefined)	13	0
CCCCCCc1ccc(C(=O)N(CC(=O)N(Cc2ccccc2)Cc2ccc(C)s2)C(C)C)cc1	24	29
CCC(CC)C(=O)N1CCN(c2ccc(Nc3ccncc3)nn2)CC1	7	-1
COC(=O)c1sc2nc(-c3ncn[nH]3)[nH]c(=O)c2c1C	1	1
Cc1ccccc1-n1nc2c(c1NC(=O)/C=C\c1ccc3c(c1)OCO3)CSC2	-1	-2
CN(C)C(=O)CSc1nnc(C2(c3ccc(Cl)cc3)CCC2)o1	11	8
COC(=O)c1ccc(NC(=O)C2CC(=O)N(C)C(=Nc3cc(Cl)ccc3Cl)S2)cc1 (centres undefined)	0	-3
CC1(Cc2cc(Cl)ccc2C(F)(F)F)C(=O)Nc2cccc(Cl)c21 (centres undefined)	4	2
CC1CCCN(C(=O)c2ccc(Br)o2)C1 (centres undefined)	8	3
Cc1cccc(NC(=O)COc2ccccc2C(C)C)n1	27	15
Cc1ccc2nc(SCc3cccc(Cl)c3)nc(=O)n2c1	4	0
CC(C)C(=O)Nc1ccccc1CN(C)C(=O)C(C)C	5	1
O=C(CCc1ccc2c(c1)OCO2)N1CCc2c([nH]c3ccccc23)C1c1ccccc1F (centres undefined)	4	4
COc1cccc(-n2c(=O)c3c(n4cnnc24)-c2ccccc2CC32CCCCC2)c1	27	10
CCOC(=O)N1CCC(NC(=O)c2cc(=O)c(OCc3ccc(F)cc3)co2)CC1	1	1
COC(=O)c1ccccc1N1C(=O)/C(=C\c2cc(OC)c3c(c2)OCO3)N(C)C1=S	25	24
COc1ccc(/C=C2/C(=O)NC(=O)N(Cc3ccccc3)C2=O)cc1[N+](=O)[O-]	4	3
CN1C[C@@H](NC(=O)C(C)(C)C)C[C@H]1c1nc(-c2ccccn2)no1	-7	-15
COc1ccc(-n2nnc(C(=O)OCc3nc(-c4ccc(OC)cc4OC)oc3C)c2C)cc1	0	-4
CC(C)(Cc1c[nH]c2ccccc12)NC(=O)Nc1ccc(Cl)c(C(F)(F)F)c1	-3	-7
CCC(C(=O)N(CCCOC)CC(=O)N1CCc2sccc2C1c1ccc(F)cc1)c1ccccc1 (centres undefined)	-10	-12
CSc1nnc2c(n1)OC1(CCCC1)Nc1ccccc1-2	2&3	-3&66
Oc1ccccc1-c1n[nH]c(/C=C/c2ccccc2Cl)n1	2	1
O=C(NCc1ccc(Cl)cc1Cl)Nc1cccc2[nH]c([C@H]3C[C@H](O)[C@@H](CO)O3)nc12	12	14
Cc1ccc(C(NS(=O)(=O)c2cccc(C#N)c2)C2CC2)cc1 (centres undefined)	-2	-3
O=C1NC(=Nc2ccccc2Cl)S/C1=C/c1ccc(Cl)cc1Cl	-3	-11
COc1ccc(NC(=O)CCc2csc(NC(=O)c3ccc[nH]c3=O)n2)c(OC)c1	-13	-18
O=C1/C(=C\c2ccc(Cl)cc2)COc2ccccc21	-4	-5
CC1CCc2c(sc(NC(=O)CCl)c2C(=O)OC(C)C)C1 (centres undefined)	-4	-12
CN(C)c1ccc(NC(=O)c2ccco2)cc1CN(CC1CC1)C(=O)c1ccc(F)cc1	27	29
O=C(c1ccco1)N1CCN(C(c2ccccc2)c2ccc(F)cc2)CC1 (centres undefined)	4	2
CC(C)N(Cc1ccc(OS(=O)(=O)c2ccc(F)cc2)cc1)C(=O)Nc1cccc(C(F)(F)F)c1	0	-8
COCc1cc(C)nc(N/N=C\c2ccc(Br)o2)c1C#N	-3	1
O=C(c1ccco1)N1CCN(c2ccc3nnc(-c4ccco4)n3n2)CC1	2	-1
NC(=O)c1sc(=S)n(-c2ccc(Cl)cc2)c1N	14	4
The results go on:
SMILES	NPYLR7 agonist	NPYLR7 agonist max-min
CCN(Cc1cccc(F)c1F)c1c(N)n(Cc2ccccc2)c(=O)[nH]c1=O	-2	3
Cn1nc(C(C)(C)C)c2[nH]c(-c3ccc(S(C)(=O)=O)cc3)nc21	-2	-3
COc1cccc(C(=O)NC(=NCc2ccco2)OC(C)C)c1	0	1
CC(C)c1cccc(OCCOc2cccc3cccnc23)c1	-8	10
CN(C)C(C(=O)NNc1c(Cl)cc(Cl)cc1Cl)c1ccccc1 (centres undefined)	9	4
COc1ccc2c(c1)CC(CNC(=O)c1cc(F)cc(C(F)(F)F)c1)O2 (centres undefined)	-1	-3
CNc1cncc(-c2ccccc2OC)n1	1	-2
CC(C)NC(=O)c1csc([C@@H]2O[C@H](CO)[C@H](O)[C@H](O)[C@H]2O)n1	2	1
Oc1ccccc1N=Cc1cccs1	1	-8
CCC1(c2ccccc2)NC(=O)N(NC(=O)NC2CCCCC2)C1=O (centres undefined)	1	0
O=C(NNS(=O)(=O)c1ccccc1F)c1cc2c(s1)CCC2	2	3
Cc1nc(CN2CCCC(CCc3ccccc3C(F)(F)F)C2)co1 (centres undefined)	-1	1
Cc1cccc(NC(=O)CSc2nnc(CNC(=O)c3ccco3)n2-c2cccc(C)c2)c1	-1	0
CN(C)CCCN1C(=O)C(=O)C(=C(O)c2ccc(Cl)cc2)C1c1cccnc1 (centres undefined)	12	7
CCN(Cc1nccn1Cc1ccc(Cl)c(Cl)c1)C(=O)NC(C)C	19	23
CCOC(=O)CCC(=O)N(CCOC)Cc1ccc(OC)c(OS(C)(=O)=O)c1	11	17
Cc1cc(CN(C)C(=O)C2CCN(c3nc(C)c4cc(C(C)C)ccc4n3)CC2)on1	20	4
Cn1ncc2c1NC(=O)CC2c1cn(-c2ccccc2)nc1-c1ccccc1 (centres undefined)	-3	-6
CC1CC(N2CCC(OCCN3CCCC3)CC2)C(=O)O1 (centres undefined)	7	5
CC(C)CN(C(=O)CSc1nnc(-c2ccco2)o1)C1CCS(=O)(=O)C1 (centres undefined)	3	8
CCCc1cc(C(=O)N2CCC(c3nn(C)c(=O)n3CC)CC2)cs1	5	2
CCCCn1c(=O)[nH]c(=O)c2c1nc(CSc1nncn1C)n2CC	1	5
COc1ccccc1N1CCN(c2nc(-c3ccc(F)cc3)nc3ccccc23)CC1	-2	1
COc1ccc(CN2CCN(CC3CCCCC3)C(CCO)C2)cc1O (centres undefined)	-8	-9
CCOC(=O)c1c(C)[nH]c(C(=O)COC(=O)CN2C(=O)C3CC=CCC3C2=O)c1C (centres undefined)	-1	-2
COc1ccncc1NC(=O)c1ccc(C(=O)c2cc[nH]c2)cc1	3	0
NC(=O)C1CCCN(C(=O)c2ccc(Cl)s2)C1 (centres undefined)	9	8
CCc1nc2ccc(C(=O)NCCCN(C)C)cn2c1N(C)Cc1cccs1	10	0
COc1ccccc1N1CCN(c2ccc(NC(=O)C(C)(C)CCl)cc2C(=O)NC(C)c2ccccc2)CC1 (centres undefined)	1	6
Nc1cc(C(Cl)=C(Cl)Cl)c(S(N)(=O)=O)cc1S(N)(=O)=O	4&-8	0&-10
Cc1csc(CN(C)c2ccc(-c3nc(C)c(C)c(=O)[nH]3)cn2)n1	-6	-6
CNC(=O)Cc1ccccc1NC(=O)COC1CCCCC1C (centres undefined)	4	3
COCCc1nc2ccc(C(=O)N3CCC(Oc4ccc(F)cc4)CC3)cc2o1	5	4
CC(=O)c1cccc(NC(=O)Cn2nc(-c3cccs3)c3sc(N4CCCC4)nc3c2=O)c1	0	-5
COCCNc1nccc2[nH]c(-c3ccc(F)c(F)c3)nc12	-4	-9
O=C(NC(C(=O)N1CCCC1)C1CCN(C(=O)c2cccs2)CC1)c1ccc2c(c1)OCO2 (centres undefined)	10	13
C/C(=N\OCC(=O)N/N=C\c1nc2ccccc2n1C)c1ccccc1	11	8
COc1ccc(-c2cncnc2)c(C)c1	20	12
O=C(CCN1C(=O)SC(=Cc2cccs2)C1=O)NC1=NCCS1	-4	-5
N#Cc1ccc(-c2cn(-c3ccccc3)c3[n+]2CCCS3)cc1	2	3
CNS(=O)(=O)c1ccc(CCc2n[nH]c(Cc3ccccc3)n2)cc1	6	4
CCCCOc1ccccc1-c1cc2c(SCC(=O)Nc3ccc(NC(C)=O)cc3)nccn2n1	-3	-11
CSc1cccc(CN(C)C(=O)[C@H](N)CC(C)C)c1	1	11
CCc1sc(C(=O)NNC(=O)CN2C(=O)NC3(CC(C)CC(C)(C)C3)C2=O)cc1C (centres undefined)	5	2
Cc1ccc(/C=C/C(=O)N(CCO)c2ccccc2)cc1Cl	-2	1
CC(NC(=O)C1CCN(Cc2cccn2C)CC1)C(=O)N(C)C (centres undefined)	-5	-7
CCN(CC)CCSc1nc(O)c(CC(C)C)c(=O)[nH]1	-9	-8
Cc1ccc2ncn(Cc3nc(-c4ccc(C)c(F)c4)no3)c(=O)c2c1	19	13
CCCCCCc1nc(C(N)=O)c2[nH]c(=O)n(-c3cccc(OC)c3)c2n1	17	7
CCOC(=O)C1(Cc2ccc(Cl)cc2)CCN(Cc2ccc(OCC)c(CO)c2)CC1	6	0

Grouped by structure, the compounds so far containing an aryl thioether with sulfur outside any ring
SMILES	NPYLR7 agonist	NPYLR7 agonist max-min
COc1ccccc1-c1nnc(NC(=O)CSc2nnc(N)s2)s1	5	10
N#Cc1c(NC(=O)CSc2ncnc3sccc23)oc(-c2ccco2)c1-c1ccco1	1	-8
COc1ccc(NC(=O)CSc2ccc3nnc(-c4ccncc4)n3n2)c(OC)c1	1	0
CN(C)C(=O)CSc1nnc(C2(c3ccc(Cl)cc3)CCC2)o1	11	8
Cc1ccc2nc(SCc3cccc(Cl)c3)nc(=O)n2c1	4	0
CSc1nnc2c(n1)OC1(CCCC1)Nc1ccccc1-2	2&3	-3&66
Cc1cccc(NC(=O)CSc2nnc(CNC(=O)c3ccco3)n2-c2cccc(C)c2)c1	-1	0
CC(C)CN(C(=O)CSc1nnc(-c2ccco2)o1)C1CCS(=O)(=O)C1 (centres undefined)	3	8
CCCCn1c(=O)[nH]c(=O)c2c1nc(CSc1nncn1C)n2CC	1	5
CCCCOc1ccccc1-c1cc2c(SCC(=O)Nc3ccc(NC(C)=O)cc3)nccn2n1	-3	-11
CSc1cccc(CN(C)C(=O)[C@H](N)CC(C)C)c1	1	11
CCN(CC)CCSc1nc(O)c(CC(C)C)c(=O)[nH]1	-9	-8

Not all compounds are listed. The share of hits here may be higher or lower than overall.
